Screens deposited in PubChem by several laboratories.
Env fusion inh: blocks HIV Env-driven cell-cell fusion; hit rate 1.1% among 360,000; inhibition, % at 12.3 µM; HeLa-JRFL Env/CEM21 cell fusion, luciferase; AID 651610;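 active = mean replicate inhibition score of at least 50 and every replicate individually at or above 50; inconclusive = only one of the two criteria met; inactive = mean below 50 and not all replicates reaching 50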;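 note: 0% = plate neutral controls and 100% = maraviroc near 300 nM; one replicate is shown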
eIF4H FP inh: inhibitors of RNA binding by human eIF4H; eIF4H fluorescence polarization binding assay; inhibition, % at 35 µM; hit rate 0.94% among 290,000;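 active = 50% or more with normal probe brightness, or confirmed in later tests; inconclusive = above 50% with abnormal brightness, or retests that disagree; inactive = below 50% or failed in later tests; about a fifth of its hits are not listed in these tables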;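 note: calls also rest on retests at 20 µM and on dose response follow-up; 0% = protein and probe with vehicle and 100% = probe without protein; strong numbers were not always called active; many hits fall short of the cut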
Rce1 inhib: yeast Ras-converting enzyme inhibition; yeast membranes, quenched prenylated peptide cleavage fluorescence; AID 2563; calls only; hit rate 0.27% among 290,000; Q03530;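 active = fall in fluorescence gain of 50% or more versus controls, with final raw signal at or below 3038400; inconclusive = same 50% fall but final raw signal above 3038400; inactive = fall in fluorescence gain under 50%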;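 note: plate controls were neutral control wells for no effect and wells lacking membranes for full effect; tested at 10 µM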
PABP polyA inh: PABP-poly(A) binding inhibition; hit rate 1% among 290,000; PABP-poly(A) RNA binding, fluorescence polarization; inhibition, % at 35 µM;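 active = 50% or more with normal probe brightness, or confirmed in later tests; inconclusive = above 50% with abnormal brightness, or retests that disagree; inactive = below 50% or failed in later tests; about a fifth of its hits are not listed in these tables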;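 note: calls also rest on retests at 20 µM and on dose response follow-up; controls were probe without protein and protein plus probe with vehicle; some compounds called inactive have numbers as strong as hits; many hits fall short of the cut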
Target sequence (P11940 whole entry, looked up): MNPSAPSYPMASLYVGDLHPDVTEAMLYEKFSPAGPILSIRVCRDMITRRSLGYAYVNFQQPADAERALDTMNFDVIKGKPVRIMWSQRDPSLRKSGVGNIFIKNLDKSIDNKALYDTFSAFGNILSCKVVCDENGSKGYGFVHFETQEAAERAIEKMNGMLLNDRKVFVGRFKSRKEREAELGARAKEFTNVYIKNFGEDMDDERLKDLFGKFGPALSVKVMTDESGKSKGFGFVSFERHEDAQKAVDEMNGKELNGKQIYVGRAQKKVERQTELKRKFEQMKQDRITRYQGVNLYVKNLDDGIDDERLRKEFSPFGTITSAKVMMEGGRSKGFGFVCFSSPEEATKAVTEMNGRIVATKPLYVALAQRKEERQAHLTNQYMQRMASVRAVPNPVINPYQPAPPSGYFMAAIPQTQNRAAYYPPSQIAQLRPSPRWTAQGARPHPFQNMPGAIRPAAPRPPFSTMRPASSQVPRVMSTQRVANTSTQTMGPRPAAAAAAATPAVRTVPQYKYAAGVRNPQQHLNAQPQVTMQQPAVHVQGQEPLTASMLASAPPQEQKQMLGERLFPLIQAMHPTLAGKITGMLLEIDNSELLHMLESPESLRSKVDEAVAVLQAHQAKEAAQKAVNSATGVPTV
CSC inhib: cancer stem cell inhibition; cancer stem cell-like cells viability, luminescence; hit rate 1.1% among 300,000; inhibition, % at 7.5 µM;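 active = mean at 75% or more and at least half the replicates too; inconclusive = mean and replicates disagree; tested in HMLE shEcad cells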;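 note: 0% = median of negative and 100% = median of positive control wells; the first replicate is given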
MT1-MMP act inh: inhibitors of human MT1-MMP activation; P50281; HT1080 RFP-PRO-GFP cells, GFP/RFP ratio fluorescence, overnight; percent of plate control window, DMSO zero; GFP/RFP ratio change, % at 20 µM; hit rate 0.061% among 360,000;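 active = GFP/RFP ratio change of at least 30% with cell ATP level not reduced by more than half and red fluorescence within 50% of control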; note: strong numbers were not always called active
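system = RFP-PRO-GFP reporter HT1080 cells | dosing = 20 µM single dose, 1% DMSO | timing = overnight cell settling, then overnight compound exposure, 37 °C, 5% CO2 | read-out basis = GFP/RFP fluorescence ratio | controls = DMSO and RFP-L50D-GFP cell wells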
UUG fidelity: alters start codon recognition fidelity in yeast | S. cerevisiae UUG-firefly luciferase reporter, luminescence/redox ratio | hit rate 0.13% among 350,000 | activity score, % at 18.7 µM;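 active = replicate mean at a twofold rise or more, about +100% in these data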;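 note: firefly luciferase made from a UUG start codon reports start codon fidelity; reporter light over untreated wells divided by growth signal over untreated wells; some hits fall short of that in this replicate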
eIF4H FP inh retest: second read-out of eIF4H FP inh, no call of its own (marks repeat the call); inhibition, %; compound at 20 µM; confirmation average;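 mean of two retest wells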
PABP polyA inh retest: second read-out of PABP polyA inh, no call of its own (marks repeat the call); inhibition, %; compound at 20 µM; confirmation repeats;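 mean of two retest wells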
MT1-MMP act inh RFP: further read-out of MT1-MMP act inh, marked with its call; RFP signal change, %; measured here: RFP expression control read;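 0 = vehicle wells; hits needed this value within 50% of zero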
An asterisk follows results filed as active; i = inactive; ? = inconclusive; nt = no result given; + = active, no number.

SMILES	Env fusion inh	eIF4H FP inh	Rce1 inhib	PABP polyA inh	CSC inhib	MT1-MMP act inh	MT1-MMP act inh RFP	UUG fidelity	others
C/C(=N\OCC(=O)OCC(=O)NC(=O)c1ccc(OC(F)F)cc1)c1ccc2c(c1)OCO2	9	nt	i	nt	6	-5	2	nt
CC(OC(=O)c1ccc2c(=O)n3c(nc2c1)CCC3)C(=O)NC1CCCCC1C (centres undefined)	nt	-15	+	5	-12	-1	0	1
COc1cc(C2CC(=O)c3cnc(NC(C)=O)nc3C2)cc(OC)c1OC (centres undefined)	nt	-7	i	-4	-11	2	2	-12
COc1cccc(N=c2oc3ccccc3cc2-c2nc3ccccc3[nH]2)c1	i	-4	i	-1	56	2	2	-32
COc1ccc(-c2nnn(CC(=O)N3CCN(c4ccccc4OC)CC3)n2)cc1OC	-5	-4	i	-5	-4	-2	0	-8
C=CCc1cc(/C=C2/NC(=O)N(CC)C2=O)cc(OCC)c1OCc1ccc(C(=O)O)cc1	32	2	i	?	7	-1	-5	nt
Cc1ccc(NCN2C(=O)C(=O)c3ccccc32)nc1	-44	6	i	-10	10	-2	6	-5
COc1cc(OC)c(NC(=O)CCNS(=O)(=O)c2ccc3c(c2)CC(C)N3C(C)=O)cc1Cl (centres undefined)	1	-16	i	29	1	4	5	-6
Cc1cc(/C=C(\C#N)C(=O)NC2CC2)c(C)[nH]1	-34	24	i	10	-10	3	6	0
CC1CCCCC1NS(=O)(=O)CCNC(=O)c1ccc2c(c1)OCO2 (centres undefined)	-21	nt	i	nt	-12	-1	-1	5
COc1ccc(C2C(C(=O)N3CCOCC3)CCC(=O)N2c2ccc(OC)cc2)cc1 (centres undefined)	10	4	i	-4	9	-7	0	3
COc1ccc(N2CCN(C(=O)CCc3ccccc3)CC2)cc1	1	3	i	2	-11	2	3	2
CC(C)CN(CC(C)C)S(=O)(=O)c1cc([N+](=O)[O-])ccc1N1CCCCCC1	nt	2	i	-4	nt	-14	-10	-15
CCOC(=O)N1CCN(C(=O)c2ccc3nc(C)sc3c2)CC1	nt	4	i	5	-3	3	3	-10
CCOc1ccccc1NC(=O)c1ccc(CN2CCc3ccccc3C2)cc1	-17	6	i	6	39	-2	-1	-7

Reprinted from the part before: 3 entries; new compounds follow.
SMILES	Env fusion inh	eIF4H FP inh	Rce1 inhib	PABP polyA inh	CSC inhib	MT1-MMP act inh	MT1-MMP act inh RFP	UUG fidelity	others
CC(C)CN(CC(C)C)S(=O)(=O)c1cc([N+](=O)[O-])ccc1N1CCCCCC1	nt	2	i	-4	nt	-14	-10	-15
CCOC(=O)N1CCN(C(=O)c2ccc3nc(C)sc3c2)CC1	nt	4	i	5	-3	3	3	-10
CCOc1ccccc1NC(=O)c1ccc(CN2CCc3ccccc3C2)cc1	-17	6	i	6	39	-2	-1	-7
CCCNC(=O)Cn1cnc2sc(C(=O)Nc3cc(OC)c(OC)c(OC)c3)c(C)c2c1=O	nt	6	i	-6	-5	6	1	nt
O=C(CN1c2cccc3cccc(c23)S1(=O)=O)N1CCOCC1	9	-2	i	6	-7	-1	4	-25
CCSc1nc2c([nH]c3ccccc32)c(=O)n1C	12	-5	i	-2	10	0	1	-11
CCN(CC)S(=O)(=O)c1cc(NC(=O)COC(=O)CCC(=O)c2ccc(F)cc2)ccc1C	14	-3	i	-3	2	5	6	3
O=C(c1cccs1)N1CCn2c1nc1ccccc12	nt	-8	i	-3	3	1	0	-31
Nc1c(Br)cc(Br)c2c1C(=O)c1c(cccc1S(=O)(=O)O)C2=O	26	nt	nt	nt	nt	27	16	20
O=C(COC(=O)c1ccc(S(=O)(=O)NCc2ccco2)cc1)Nc1ncc(Cl)cc1Cl	32	18	i	-4	-7	5	4	nt
Cc1ccc(-n2c(C)nc3oc4ccccc4c(=O)c3c2=O)cc1	-198	40*	i	80*	-9	-11	6	-13	eIF4H FP inh retest=82*;PABP polyA inh retest=66*
COc1ccc(CN2C(=O)[C@@H]3C(c4ccc(F)cc4)=NO[C@@H]3C2=O)cc1	nt	-16	nt	-2	-8	16	1	-8
COC(=O)C(C)Oc1ccc2c(c1)O/C(=C\c1ccco1)C2=O (centres undefined)	4	23	i	11	-8	-6	1	-3
Nc1c(C=C2C=CC(=O)C=C2)c(=O)nc2snc(SCc3ccccc3)n12	-21	-5	i	8	48	3	5	-15
CN(C)c1nnnn1-c1ccc(Oc2ccccc2)cc1	-6	-2	i	-3	10	1	-5	nt
COC(=O)c1ccccc1NC(=S)N(Cc1ccc2c(c1)OCO2)Cc1cc2cc(C)ccc2[nH]c1=O	-14	-5	i	8	nt	-9	-9	-12
COc1cc(OC)c(-c2nc3cnccc3n2C)cc1OC	-39	10	i	4	-6	-2	-1	-6
COc1ccccc1N1CCN(S(=O)(=O)c2c(C)[nH]c(=O)[nH]c2=O)CC1	-8	-1	i	-5	-10	-7	3	nt

Entries above with an aryl thioether with sulfur outside any ring, in the order listed:
SMILES	Env fusion inh	eIF4H FP inh	Rce1 inhib	PABP polyA inh	CSC inhib	MT1-MMP act inh	MT1-MMP act inh RFP	UUG fidelity	others
CCSc1nc2c([nH]c3ccccc32)c(=O)n1C	12	-5	i	-2	10	0	1	-11
Nc1c(C=C2C=CC(=O)C=C2)c(=O)nc2snc(SCc3ccccc3)n12	-21	-5	i	8	48	3	5	-15

The main list resumes, starting four compounds before the break.
SMILES	Env fusion inh	eIF4H FP inh	Rce1 inhib	PABP polyA inh	CSC inhib	MT1-MMP act inh	MT1-MMP act inh RFP	UUG fidelity	others
CN(C)c1nnnn1-c1ccc(Oc2ccccc2)cc1	-6	-2	i	-3	10	1	-5	nt
COC(=O)c1ccccc1NC(=S)N(Cc1ccc2c(c1)OCO2)Cc1cc2cc(C)ccc2[nH]c1=O	-14	-5	i	8	nt	-9	-9	-12
COc1cc(OC)c(-c2nc3cnccc3n2C)cc1OC	-39	10	i	4	-6	-2	-1	-6
COc1ccccc1N1CCN(S(=O)(=O)c2c(C)[nH]c(=O)[nH]c2=O)CC1	-8	-1	i	-5	-10	-7	3	nt
COc1ccc(-c2csc(Nc3ccc(S(N)(=O)=O)cc3)n2)cc1OC	15	-5	i	3	17	-3	-7	nt
CN1CCN(C(=O)C2CC(c3ccc(F)cc3)=NO2)CC1 (centres undefined)	-4	-7	i	-4	-8	3	8	-19
Cc1cc(-c2nn3c(-c4ccccc4)nnc3s2)c2ccccc2n1	-36	2	i	-9	-7	4	5	-17
COc1ccc(-n2cc(-c3ccccc3)c3c(=S)nc[nH]c32)cc1	15	2	i	-8	-5	3	2	-31
NC(N)=NC(=O)c1nc(Cl)c(N2CCCCCC2)nc1N	62*	nt	nt	nt	14	-1	-1	-22
CC(C)=C1C2CCC1C(C(=O)NCc1ccccc1)C2C(=O)O (centres undefined)	67*	-4	i	-7	15	-5	1	2
C(=N\N(Cc1ccccc1)c1ccccc1)/c1ccco1	8	-5	i	-2	26	2	-2	-12
COCCCNC(=O)Cn1c(=O)n(CC(=O)NCCc2ccc(OC)c(OC)c2)c(=O)c2sccc21	10	7	i	12	-21	-1	-1	nt
CCN(Cc1ccccc1)c1ccc(/C=C(\C#N)c2ccccn2)cc1	-23	?	i	-5	22	-18	-3	-10
COC(=O)[C@]1(Cc2ccccc2)N[C@H](CN(C)C(=O)COc2ccccc2)[C@@H]2C(=O)N(Cc3ccccc3)C(=O)[C@@H]21	43	nt	nt	nt	-23	2	-5	-5
COc1ccc(-c2nc(C#N)c(NCCCN3CCOCC3)o2)cc1	5	2	i	8	-21	2	2	-8
O=C(NC1CCN(Cc2ccccc2)CC1)c1cccc(Br)c1	10	-4	i	6	-1	1	2	-10
COCCn1c(-c2ccc(Cl)cc2)cnc1SCC(=O)NCc1cccs1	nt	-4	nt	-1	-16	-6	-11	-7
COCCNC(=O)C(=O)Nc1cc2c3c(c1)C(C)C(=O)N3CCC2 (centres undefined)	-12	-5	i	0	-4	5	2	-7
Cc1cc(NC(=O)C(=O)NCCN2CCN(S(C)(=O)=O)CC2)ccc1Br	19	-5	i	-14	-4	8	-3	nt
CCOC(=O)c1nn(-c2ccc(C)c(C)c2)cc1O	-125	-10	i	3	10	1	0	-15
NS(=O)(=O)c1ccc(CNC(=O)c2cc(-c3cccnc3)nc3ccccc23)cc1	-4	0	i	6	6	-3	0	-7
O=C(NNc1nc2c(F)cccc2s1)c1ccc(F)cc1	35	-1	i	8	6	-2	0	nt
CCOCCc1nnc(NC(=O)CCC2CCCCC2)s1	-97	-6	i	-1	-16	3	1	-5
CCC(=O)NC(c1ccc(C)cc1)c1cc([N+](=O)[O-])c2cccnc2c1O (centres undefined)	26	16	i	-14	100*	-5	-8	-16
Cn1c(=O)c2c(ncn2CC(=O)N2CCN(S(=O)(=O)c3ccccc3)CC2)n(C)c1=O	3	-3	i	11	-9	0	4	21
CCOC(=O)C1=C(N)OC(CCl)=C(C#N)C1c1ccsc1 (centres undefined)	-18	-2	i	-18	13	-4	5	-12
Cc1ccc(C(=O)Nc2ccccc2C(=O)O)cc1S(=O)(=O)Nc1ccccc1	4	4	i	20	nt	4	3	-6
CC(=O)c1ccc(Nc2nc(C(N)COCc3ccccc3)cs2)cc1 (centres undefined)	-21	nt	nt	nt	nt	1	-2	-10
c1ccc(-c2nc(-n3ccnc3)nc(-n3ccnc3)n2)cc1	-123	-7	i	0	4	-18	-8	nt
c1ccc(COc2cccc(-c3cc4nc(NCCOc5ccccc5)ccn4n3)c2)cc1	23	nt	nt	nt	nt	-2	-10	-24
Cc1ccc(-n2c(SCC(=O)Nc3cc(S(=O)(=O)N4CCOCC4)ccc3Cl)nc3ccccc3c2=O)cc1	-367	4	i	-4	4	-2	-5	nt
CSc1ccc(CN(C)C(C)C(=O)Nc2ccc(F)c(F)c2F)cc1 (centres undefined)	26	5	i	-24	-8	-5	0	nt
COc1cccc(-c2nn(C)c3sc(C(=O)N4CCN(c5ccccn5)CC4)cc23)c1	nt	-2	i	-15	45	12	-13	14
CC(C)(C)C1=C(C#N)C(c2ccncc2)C(C#N)=C(N)O1 (centres undefined)	-10	14	i	-2	-8	-2	2	-12
CCOc1ccc(Nc2nc(Cc3nnc(SCC(=O)NCC4CCCO4)n3C)cs2)cc1 (centres undefined)	nt	-1	i	2	-6	2	5	-24
CCc1ccc(Nc2nnc(SCC(=O)Nc3cccc(S(=O)(=O)NC4=NCCCCC4)c3)s2)cc1	-57	-6	i	-9	0	-1	-10	-24
Cc1ccsc1CNn1cnnc1SCc1ccc(Cl)cc1	-46	8	nt	-4	-3	3	-3	-14
CC1(C)Cc2c(ccc3ccccc23)/C(=C/C#N)N1	nt	6	nt	8	-2	-5	0	-12
Cc1cc(Cl)ccc1Oc1nccc(N(C)C)c1C#N	nt	-6	i	2	-5	1	-16	-10
COc1ccc(CCNC(=O)CCS(=O)(=O)c2ccc3c(c2)NC(=O)CO3)cc1OC	-6	8	i	1	-5	-2	0	-9
CCCC(=O)Nc1nc2ccc3nc(C)sc3c2s1	nt	10	i	2	-6	5	-1	-12
NS(=O)(=O)c1ccc(CNC(=O)c2ccc(NS(=O)(=O)c3cccs3)cc2)cc1	nt	nt	nt	nt	-1	3	6	1
